High-throughput results (PubChem)
Vaccinia mCherry = qHTS for Stage-Specific Inhibitors of Vaccinia Orthopoxvirus: mCherry Reporter Primary qHTS; Vaccinia virus mCherry reporter infection, fluorescence; about a quarter of the inactives have no number; Potency, µM (doses to about 36.5 µM), for inactives: at the top dose activity change, negative = inhibition, actives largely listed as inhibitors; 310,000 compounds, 0.63% hits; AID 720579, 2013; active = well fitted inhibition curve with a large enough effect; inconclusive = small, poorly fitted or top-dose-only effect; inactive = no such curve, though single readings can be large or run the other way; tested in A549 cells; note: nearly all actives have a fitted effect of over 35% in size; inactives centre near -10
VACV Venus inh = qHTS for Stage-Specific Inhibitors of Vaccinia Orthopoxvirus: Venus Reporter Primary qHTS. 330,000 compounds, 0.46% hits. Potency, µM (doses to about 36.5 µM), for the others: at the top dose activity change, negative = inhibition, actives largely listed as inhibitors. Vaccinia virus Venus reporter expression, fluorescence; active means well fitted inhibition curve with a large enough effect; inconclusive means small, poorly fitted or top-dose-only effect; inactive means no such curve, though single readings can be large or run the other way; tested in A549 cells; note: nearly all actives have a fitted effect of over 30% in size; inactives centre near -10
* marks the source's active call; other numbers are inactive results; i = inactive; ? = inconclusive; nt = no result given; [ ] = dose if it differs, or a comment. % is set by controls: 0 for no effect and ±100 for the full control effect; potency is the fitted concentration of half-maximal effect. Hits appear at their usual frequency, and some 0.87% of all compounds hit somewhere here.

The first 3 records (preview)
smiles	Vaccinia mCherry	VACV Venus inh
COc1ccc(C)cc1NC(=O)C(OC(=O)Cn1cnc2c1c(=O)n(C)c(=O)n2C)c1ccccc1 (stereo unspecified)	-4%	-15%
O=C(CSc1nc2ccc(NC(=O)c3ccccc3C(=O)O)cc2s1)Nc1ccc(F)c([N+](=O)[O-])c1	-12%	-8%
Cc1ccc(N2C(=O)CC(NNC(=O)c3cccc(S(=O)(=O)N4CCCC4)c3)C2=O)cc1 (stereo unspecified)	i	-22%

The listing, from the first entry:
smiles	Vaccinia mCherry	VACV Venus inh
COc1ccc(C)cc1NC(=O)C(OC(=O)Cn1cnc2c1c(=O)n(C)c(=O)n2C)c1ccccc1 (stereo unspecified)	-4%	-15%
O=C(CSc1nc2ccc(NC(=O)c3ccccc3C(=O)O)cc2s1)Nc1ccc(F)c([N+](=O)[O-])c1	-12%	-8%
Cc1ccc(N2C(=O)CC(NNC(=O)c3cccc(S(=O)(=O)N4CCCC4)c3)C2=O)cc1 (stereo unspecified)	i	-22%
COc1cc2c(cc1OC)C(=S)NC1(CCCC1)C2	-22%	-21%
CC1(C(=O)NS(=O)(=O)C2CC2)CCCN(C(=O)c2ccccc2)C1 (stereo unspecified)	i	-10%
Cc1cccc(-n2c(CNC(=O)c3cccc([N+](=O)[O-])c3C)n[nH]c2=S)c1	i	0%
Cc1c(NC(=O)c2c(F)c(F)c(F)c(F)c2F)c(=O)n(-c2ccccc2)n1C	-18%	-17%
COC(C(=O)Nc1ccnn1C1CCN(Cc2cnn(C)c2)CC1)c1ccccc1 (stereo unspecified)	-10%	-8%
CN(CCc1ccccn1)C(=O)CC1C(=O)NCCN1Cc1ccc(-c2ccccc2)cc1 (stereo unspecified)	2%	-6%
CCOC(=O)c1nc(NCc2ccccc2F)c2ccccc2n1	?	1%
CCCCC(=O)Nc1nnc(S(=O)(=O)N(C)Cc2ccco2)s1	-1%[7.34 µM]	0%[7.34 µM]
CCn1c(=O)c(=O)[nH]c2cc(C(=O)N3CCN(c4ccccc4F)CC3)ccc21	-10%	2%
CC(=O)Nc1sc(N)nc1-c1ccccc1	?	-4%
CSc1nsc2nc(=O)c(/C=C3\C=Nc4ccccc43)c(N)n12	-2%[7.34 µM]	8%[7.34 µM]
O=C1OC(c2ccc(Br)cc2)=N/C1=C\c1ccco1	-6%	-1%
N#Cc1c(/N=C/c2ccc(-c3ccc(C(=O)O)c(Cl)c3)o2)sc2c1CCCC2	-11%	2%
Cc1ccc(NC(=O)CC2NCCNC2=O)cc1 (stereo unspecified)	i	-7%
CCc1ccc2c(c1)c1nc(C)sc1n2CC	nt	?
O=C1CC(c2ccccc2)c2ccccc21 (stereo unspecified)	-2%	-13%
O=C1c2ccccc2C(=O)N1c1cccc(N2C(=O)c3ccccc3C2=O)n1	-9%	-10%

Single values from the entries so far.
Result of Cc1cccc(-n2c(CNC(=O)c3cccc([N+](=O)[O-])c3C)n[nH]c2=S)c1 under VACV Venus inh: 0%
Result of CCCCC(=O)Nc1nnc(S(=O)(=O)N(C)Cc2ccco2)s1 under VACV Venus inh: 0%[7.34 µM]

Next records
smiles	Vaccinia mCherry	VACV Venus inh
O=C(COC(=O)c1cc(Cl)ccc1O)NNC(=O)c1ccc([N+](=O)[O-])cc1	i	-10%
CC(C)CCNC(=O)NC(=O)COC(=O)C1CCN(S(=O)(=O)c2ccccc2F)CC1	-17%	-12%
Cc1cnc(C(=O)N(c2ccccc2)C(c2ccccc2)c2nc3ccccc3[nH]2)cn1 (stereo unspecified)	i	4%
CNC(=O)COC(=O)c1ccc(Cl)c(S(=O)(=O)N2CCCC2)c1	-4%	-13%
CN(C)CCOc1ccc(-c2c(-c3ccccc3)sc3ccccc23)cc1	?	13µM*
Cc1c(C(=O)Nc2nc3ccccc3[nH]2)oc2c(Cl)cccc12	-15%	-20%
Cc1cc(Cc2ccc([N+](=O)[O-])cc2)c(C)cn1	-3%	-16%
Cc1cc(C)c(NC(=O)CN(C)C(=O)CCN2C(=O)C3CCCCC3C2=O)c(C)c1 (stereo unspecified)	i	-10%
CCOC(=O)N/N=C/c1c(C)nn(-c2cccc(C(F)(F)F)c2)c1Cl	?	?
CC1(c2ccc3noc(-c4ccccc4)c3c2)OCCO1	nt	-18%
Cc1cc(C)n(Cc2ccc(Cl)c(Cl)c2)c(=O)c1S(=O)(=O)c1ccccc1	i	-13%
COc1ccc(NC(=O)c2cc(-c3ccc(C)cc3)on2)cc1OC	-19%	-21%
CO/N=C(/CNC(=O)c1ccc(Cl)cc1Cl)c1ccc(Cl)cc1	i	-2%
COc1cc(C2NC(=O)NC(c3ccccc3)=C2C(C)=O)c(Br)cc1OCC(N)=O (stereo unspecified)	-10%	-7%
CCCc1cc(=O)[nH]c(Nc2ccc(C(=O)O)cc2)n1	-8%	-11%
Cc1cc(=O)[nH]c(SCC(=O)N2CCC(C(N)=O)CC2)n1	i	10%
O=C(NCCc1csc(-c2ccc(Cl)cc2)n1)c1cccs1	-20%	-10%
O=C(CSc1nnc(CNC(=O)c2ccccc2F)o1)NCC1CCCO1 (stereo unspecified)	-13%	3%
CCC(C)(C(=O)Nc1ccccc1C)N(C(=O)CNC(C)=O)c1ccccc1C (stereo unspecified)	-18%	-2%
Cc1ccc(Nc2c(-c3ccc(N4CCOCC4)cc3)nc3ccc(Cl)cn23)cc1	5%	2%
O=C(C1CCN(S(=O)(=O)c2ccc3c(c2)OCCO3)CC1)N1CCc2ccccc21	-19%	-12%
Cc1nn(C(C)(C)C)c(OC(=O)CC(C)C)c1S(=O)(=O)c1ccccc1	-16%	?
COc1cc(C(=O)N(C)C2CCCN(Cc3ccccc3F)C2)cc(OC)c1OC (stereo unspecified)	-15%	-6%
COc1ccc(CCNC(=O)Cn2c(=O)cc(C(F)(F)F)c3c(C)nn(C)c32)c(OC)c1	-6%	-4%
CC1CCN(c2cc(N3CCOCC3)c([N+](=O)[O-])cc2F)CC1	-19%	-13%
CC(CCc1ccccc1)NC(=O)CN1C(=O)NC2(CCCCC2)C1=O (stereo unspecified)	-15%	-15%
O=C(COc1ccccc1[N+](=O)[O-])Nc1ccccc1N1CCCC1	?	-4%
CN1CCN(C(c2ccc(Cl)cc2Cl)c2sc3nc(-c4ccco4)nn3c2O)CC1 (stereo unspecified)	-19%	-9%
CCOc1ccc(/C=N/NC(=O)c2cc(-c3ccco3)nc3ccccc23)cc1	?	-15%
O=c1[nH]c(=O)n(-c2ccccc2)c(O)c1/C=C1/C(c2ccccc2)=Nc2ccccc21	?	?
NS(=O)(=O)c1ccc(CNC(=O)c2sccc2-c2ccccc2)cc1	-9%	-12%
O=[N+]([O-])c1ccc(NN=Cc2ccc(O)cc2)nc1	?	-2%
Cc1cc(C)n2c(NC3CCCC3)c(-c3cc4ccccc4o3)nc2n1	i	6%
COc1cccc(CSc2nnnn2-c2ccc(O)cc2)c1	-20%	-23%
COCCNC(=O)C1(C)CCCN(C(=O)c2ccc(C)c(F)c2)C1 (stereo unspecified)	38%[activator]	-2%
C=CCN(CC(=O)NCC1CCCO1)C(=O)CCC(=O)Nc1cc(C)on1 (stereo unspecified)	i	-3%
COC(=O)C(C(=O)OC)c1cc2c(cc1CNS(=O)(=O)c1ccc(C)cc1)OCO2	i	21%
CCCN(CCC)c1nc2ccccc2nc1C(C#N)C(=O)OCCOC (stereo unspecified)	nt	-15%
CCCCC1CC2=C(C(=O)OC(C)(C)O2)C(c2ccc3ccccc3c2)O1 (stereo unspecified)	i	-7%
O=c1cc(O)nc(-c2ccccc2)s1	11%	1%

Rewritten with values under each structure: entries from further up.
Every second line gives: Vaccinia mCherry | VACV Venus inh
CC1CCN(c2cc(N3CCOCC3)c([N+](=O)[O-])cc2F)CC1
  -19% | -13%
CC(CCc1ccccc1)NC(=O)CN1C(=O)NC2(CCCCC2)C1=O (stereo unspecified)
  -15% | -15%

Further records:
smiles	Vaccinia mCherry	VACV Venus inh
COc1ccc(CCC(=O)NNC(=O)Cn2nc(C)cc2C)cc1	-1%	-12%
O=C(COC(=O)c1ncc(Cl)c(Cl)c1Cl)NNC(=O)c1ccccc1	i	-7%
CCCCCCCCCOC(=O)C[n+]1csc(CCO)c1C	-11%	-7%
COCCn1c(=O)[nH]c(=O)c2c1nc(-c1ccc(-c3ccc(Cl)cc3[N+](=O)[O-])o1)n2Cc1ccccc1	?	?
COc1ccccc1CNC(=O)CCC1N=C2c3ccccc3N=C(SCc3ccc(Cl)cc3)N2C1=O (stereo unspecified)	?	?
Cc1nc2cc(F)ccc2n1C1CCN(Cc2nnnn2CCc2ccccc2)CC1	-19%	-17%
O=C(COC(=O)CCC(=O)c1ccc(F)cc1)Nc1nnc(-c2ccccc2)o1	-14%	0%
CN1CCN(c2ccc(CNC(=O)c3ccc(-c4ccc(F)c(F)c4)c4ccoc34)cc2)CC1	7%	-14%
Cc1cccc(Oc2coc3cc(OCC(=O)NC4CCCCC4)ccc3c2=O)c1	-14%[7.34 µM]	-2%[7.34 µM]
COC1CCN(Cc2c(C(=O)N3CCc4ccccc4C3)nc3ccc(Cl)cn23)CC1	i	-7%
COc1ccc(CNC(=O)c2ccc(NC(=O)C3CCCO3)cc2)cc1 (stereo unspecified)	-18%	-14%
COc1ccc(OC)c(S(=O)(=O)N2Cc3ccccc3CC2C(=O)Nc2ccc(Cl)cc2)c1 (stereo unspecified)	-27%	-26%
CC(C)N1CCC(N2CCN(Cc3cc(F)ccc3-n3cccn3)CC2CCO)CC1 (stereo unspecified)	-5%	-5%
CC(=O)c1cc(CN2CCN(C3CCN(C(C)C)CC3)C(CCO)C2)cs1 (stereo unspecified)	0%	-3%
C/C(=N\NC(=O)c1cc(-c2ccccn2)nc2ccccc12)c1cccc([N+](=O)[O-])c1	i	-16%
Cc1cc(=O)n2nc(N3CCCC(C(=O)N4CCOCC4)C3)sc2n1 (stereo unspecified)	nt	-12%
CC(C)c1nnc(NC(=O)C2CCN(C(=O)C(C)(C)C)CC2)s1	-2%	-15%
CCOC(=O)CC1=NC(=O)CS1	nt	-11%
Cc1ccc(NC(=O)CSc2nnc(COc3ccc(C#N)cc3)n2-c2ccccc2)cc1C	-14%	-12%
CCOc1ccc2ccccc2c1/C=N/NC(=O)CNC(=O)c1ccccc1F	-22%	-5%
O=C(CSc1ccc([N+](=O)[O-])cc1)c1ccccc1	-23%	-10%
Cc1ccc(OCC(=O)Nc2ccc(OCc3cc(=O)n4cccc(C)c4n3)cc2)cc1C	-27%	?
CC(C)(O)c1ccc2c(c1)CCC1C(C)(C(=O)O)CCCC21C (stereo unspecified)	12%	-13%
O=C(CCOc1ccccc1)N(Cc1cccnc1)c1nc2c(F)cccc2s1	-15%[7.34 µM]	-5%[7.34 µM]
CC(C)Cn1c(N)c(C(=O)CSc2ncn[nH]2)c(=O)n(C)c1=O	-8%	-6%
Cc1ccc(CN2CCN(Cc3ccc(OC(C)C)cc3)CC2CCO)o1 (stereo unspecified)	-11%	-7%
Cc1ccc(N(C(=O)c2csnn2)C(C(=O)NCc2ccccc2)c2cccnc2)cc1 (stereo unspecified)	-4%	2%
COc1cccc(CNC(=O)Cc2c(C)c3cc4c(C)coc4cc3oc2=O)c1	-14%	-13%
COc1ccc(-c2[nH]ncc2CN(C)CCN2CCOCC2)cc1F	-1%	-4%
CC[C@]12c3[nH]c4cc(CCC(=O)N(C)C)ccc4c3CCN1C(=O)[C@@H](CC(=O)NCc1cccc(C(F)(F)F)c1)C[C@@H]2C(=O)N1CCN(C(=O)c2ccco2)CC1	22%	11%
COc1ccc(CN2CCC(n3nccc3NC(=O)C3CC3)CC2)cc1O	-1%	-7%
COc1ccc(N(CC(=O)NCc2ccc(F)cc2)C(=O)CCC(=O)Nc2ccccn2)cc1	5%	7%
COC(=O)c1ccccc1NC(=O)c1cc(C2CC2)on1	i	-16%
C=CCN(c1ccc(C(=O)Nc2cccc([N+](=O)[O-])c2)cc1)S(C)(=O)=O	-10%	-9%
O=C(O)C1CC(=O)N(CCc2ccccc2)C1 (stereo unspecified)	-5%	3%
Cc1ccc(C2c3[nH]c4ccccc4c3C[C@H]3C(=O)N(c4ccccc4C(=O)NCCCN4CCOCC4)C(=O)N23)cc1 (stereo partly specified)	-23%	-14%
COc1ccc(-c2noc(CCC(=O)NCCCN3CCC(Cc4ccccc4)CC3)n2)cc1	-26%	-21%
N#Cc1ccc(C(=O)N2CCCC(c3cc(C(=O)NCc4cccnc4)no3)C2)cc1 (stereo unspecified)	-3%	1%
Cc1ccc2c(c1)nnn2C1CCN(CC(=O)NCCc2nc3ccccc3[nH]2)CC1	-17%	-15%
O=C1CCN(C(=O)CCCn2c(=O)oc3ccccc32)CC1	i	-9%
Cn1c(=O)c2c(Nc3ccc(F)cc3)cc(=O)n(-c3ccccc3)c2n(C)c1=O	-12%	-7%
CC(=O)NS(=O)(=O)c1ccc(NC(=O)CN2C(=O)C3C4C=CC(C4)C3C2=O)cc1 (stereo unspecified)	-13%	-1%
CCOCCCN(C(=O)Cn1nnc2ccccc21)C(C(=O)NCc1ccco1)c1ccncc1 (stereo unspecified)	nt	0%
